# nsP2pro primary: inhibitors of chikungunya virus nsP2 protease | actives 1.1% (n = 31,000) | FRET peptide cleavage, nsP2pro, fluorescence 1 h | Potency, µM (top dose mostly 24.9 µM), without a hit: top-dose activity change, negative = inhibition, usual class: inhibitors; active means well fitted inhibition curve with a large enough effect; inconclusive means small, poorly fitted or top-dose-only effect; inactive means no such curve, though single readings can be large or run the other way; note: nearly all actives have a fitted effect of over 60% in size; a reference inhibitor and vehicle were the controls
# * marks the source's active call; other numbers are inactive results; i = inactive; ? = inconclusive; & = joins results of further samples; [ ] = remark or other dose. % is set by controls: 0 for no effect and ±100 for the full control effect; potency is the fitted concentration of half-maximal effect. These rows are one share of the data (hit frequency here may not be typical).
smiles,nsP2pro primary
COc1ccc(CNC(=O)CN2C(=O)COc3ccc(S(=O)(=O)N4CCOCC4)cc32)cc1,-17%
O=C(O)CCc1cc2n(n1)CCCN(C(=O)c1cc3c([nH]c1=O)CCC3)C2,i
O=C(Nc1ccc(F)c(C(F)(F)F)c1)Nc1nnc(-c2ccncc2)s1,36%&1%[activator]
COC(=O)c1c(NC(=O)C(C)Oc2ccc(Cl)cc2Cl)sc2c1CCCC2 (stereo not drawn),-17%
Cc1ccc(C)c(N2CCN(C(=O)CCn3c(=O)[nH]c4ccccc4c3=O)CC2)c1,-21%
O=C(NCc1ccccc1)n1cc(P(=S)(c2ccccc2)c2ccccc2)c2ccccc21,-3%
Cn1nccc1C(=O)N1CCC(N2CC(OCC3CC3)C23CCOCC3)CC1 (stereo not drawn),-1%
O=C(O)c1ccccc1SC1=NS(=O)(=O)c2ccccc21,-7%&-9%
Cc1ccc(CCNC(=O)CCSCc2ccccc2F)cc1,-9%
COc1ccc(-c2noc(CSc3nnc(-c4ccc(Cl)cc4)n3C)n2)cc1OC,-21%
Cc1ccc(S(=O)(=O)N2CCN(Cc3ccccc3)CC2)c(C)c1NS(C)(=O)=O,-18%
CC(C)(O)/C=C/C(=O)[C@](C)(O)[C@H]1[C@H](O)C[C@@]2(C)[C@@H]3CC=C4[C@@H](C=C(O[C@@H]5O[C@H](CO)[C@@H](O)[C@H](O)[C@H]5O)C(=O)C4(C)C)[C@]3(C)C(=O)C[C@]12C,-1%[10 µM]
Cc1ccc2[nH]c3c(=O)n(CC(=O)N(CCN(C)C)Cc4ccccc4)ncc3c2c1,-16%
COc1ccccc1N1CCN(C(=O)CCS(=O)(=O)c2ccc3c(c2)oc(=O)n3C)CC1,-14%
Cc1cc2c(s1)c1cnn(Cc3cccc4cccnc34)c(=O)c1n2C,i
CCCCCCCC(=O)O,-5%
Cc1ccc(NC(=O)C2CCCN(S(=O)(=O)c3cccc4cccnc34)C2)c(C)c1 (stereo not drawn),-12%
CCCCCCCCCCCCCCCCCC(=O)NCCCC[C@H](NC(=O)CC[C@@H](NC(=O)[C@H](C)NC(=O)[C@@H](C)O[C@H]1[C@H](O)[C@@H](CO)OC(O)[C@@H]1NC(C)=O)C(N)=O)C(=O)O (stereo partly drawn),-8%
CCOC(=O)Nc1ccc(NCc2ccc(F)cc2)cc1N,?
CO[C@H]1C[C@H](O[C@H]2CC[C@@]3(C)C(=CCC4C3CC[C@]3(C)[C@@H](C5=CC(=O)OC5)CC[C@]43O)C2)O[C@@H](C)[C@@H]1O[C@@H]1O[C@H](CO[C@@H]2O[C@H](CO)[C@@H](O)[C@H](O)[C@H]2O)[C@@H](O)[C@H](O)[C@H]1O (stereo partly drawn),-6%[5.1 µM]
COc1ccc(-c2cc(C(=O)Oc3ccc(C)cc3)c3ccccc3n2)cc1,-11%
OCCC1CCN(c2ccc(-c3nc(CCCc4ccccc4)no3)cn2)CC1,i
Cc1ccccc1CN1C[C@H](O)C[C@H]1c1nc(C2CC2)no1,-20%[39.2 µM]
O=C(O)c1ccc(-c2noc(-c3cccc(C(F)(F)F)c3)n2)cc1,1%
Cc1cc(Br)cc(C)c1NC(=O)c1cnc2ccccn2c1=O,?
CC(=O)Oc1cc2c(s1)CCN(C(C(=O)C1CC1)c1ccccc1F)C2 (stereo not drawn),?
CCCCOc1ccc(NC(=O)c2cc3c(n(-c4ccc(Cl)cc4)c2=O)CCCC3=O)cc1,-15%
O=C(/C=C/c1c(F)c(F)c(F)c(F)c1F)Nc1cccc([S+](=O)([O-])Nc2ccccc2F)c1,3%
CN(C)c1ccc(CNC(=O)C(Cc2ccccc2)NS(=O)(=O)c2ccc3c(c2)oc(=O)n3C)cc1 (stereo not drawn),-21%
Cc1noc(C)c1-c1cc2c(c(-c3ccccc3Oc3ccccc3)c1)C(=O)N(C)C2,i
Cc1cc(C(=O)N[C@H]2[C@H](O)[C@H](O)C[C@@H]2c2cccnc2)n(C)n1,-7%[39.2 µM]
COc1ccc(Nc2ccc3c(n2)CN(Cc2ccccc2C)C(=O)CO3)cc1,4.5µM*
CC(=O)C1=C(c2ccc(C)cc2)N(C(C)=O)n2c(nnc2C2CCCCC2)S1,?
COc1ccc(CCNC(=O)c2cccc(Nc3nc4ccccc4nc3-n3nc(C)cc3C)c2)cc1OC,-8%
FC(F)(F)c1ccccc1-c1nc(NCc2ccc(C3CCCCC3)cc2)c2ccccc2n1,-5%
CCOC(=O)C1CCN(c2ncc(-c3ccc4c(c3)OCCCO4)s2)CC1,-9%
CCCNC(=O)N(C1CCOCC1)C1CCN(C(=O)CCC(=O)c2ccc(F)cc2)CC1,-7%
CN1CCCC2(CCN(C(=O)CCc3ccc(Cl)cc3)C2)C1=O (stereo not drawn),1%
CCOc1ccccc1CNc1ncnc2ccc(-c3c(C)noc3C)cc12,1%
Cc1cnc(CC2CCN(S(=O)(=O)c3ccc4c(c3)CCC4)CC2)n1CC1CC1,i
COc1nc2nc(CCc3ccccc3)n(C)c2cc1-c1ccnn1C,-28%[39.2 µM]
CS(=O)(=O)Nc1cccc(-c2cc(F)c(S(=O)(=O)N3CCN(S(=O)(=O)c4ccc5c(c4)OCCO5)CC3)cc2F)c1,i
COc1cccc(CC(=O)Nc2nc(-c3ccc4c(c3)CCN4C(=O)c3ccccc3C)c(C)s2)c1,-7%
CCC1Sc2ccccc2N(CC(=O)NCc2ccc(C)cc2)C1=O (stereo not drawn),-12%
O=C(Nc1ccc(N2CCN(CCOc3ccc(Cl)cc3)CC2)c(C(=O)O)c1)c1ccc(F)cc1,3.5µM*
Cc1ccc(CNc2ncnc3ccc(-c4ccoc4)cc23)o1,i
c1csc(C2=NC(c3ccncc3)=Nc3ccccc3N2)c1,4%
CCC(=O)O[C@]1(C(=O)COC(C)=O)CC[C@H]2[C@@H]3C[C@H](C)C4=CC(=O)C=C[C@]4(C)[C@H]3[C@@H](O)C[C@@]21C,21%
CC(=O)Nc1sc2c(c1-c1ccc3nonc3c1)CCNC2,-5%
Cc1cc(=O)n(CC(=O)N2CCCc3ccccc32)c2c1c(C)nn2-c1cccc(F)c1,-16%

# (cont.)
smiles,nsP2pro primary
CCNC(=O)C1CCCN(c2nnc(C)c3c(C)n(-c4ccc(C)cc4)nc23)C1 (stereo not drawn),-6%
COc1ccc(C(=O)N(Cc2cc(OC)c(OC)c(OC)c2)CC2CCCO2)cc1 (stereo not drawn),-14%
O=C(OCC#CCSc1nnc(-c2ccc(F)cc2)o1)c1ccc(F)cc1,-11%
CC(=O)Nc1nc2c(Oc3cc(-c4ccc(C(F)(F)F)cc4)ncn3)cccc2s1,-1%
O=C(Nc1ccc2ccccc2c1)Nc1nnc(-c2ccccc2F)s1,3%
O=C(Cn1cccc1-c1nc(-c2ccccc2)no1)N1CCc2ccccc21,-6%
CCOc1ccc(C(=O)N2CCCC3(C2)NC(=O)N(Cc2cc(C)ccc2C)C3=O)cc1 (stereo not drawn),1%
CCc1c(-c2ccccc2)nc2ccccc2c1C(=O)NCCc1ccccc1,-18%
C[C@@H]1O[C@@H](OC[C@H]2O[C@@H](Oc3cc(O)cc4c3C(=O)C(O)(Cc3ccc(O)cc3)O4)[C@H](O)[C@@H](O)[C@@H]2O)[C@H](O)[C@H](O)[C@H]1O (stereo partly drawn),?
COc1ccc(C[C@@H]2NC(=O)[C@@H]3C[C@@H](NC(=O)Nc4cccc(SC)c4)CCN3C2=O)cc1,-5%
Cc1cc(Cl)ccc1NC(=O)c1cc2ccccn2n1,-13%
O=C(NC(c1ccco1)c1cc(Cl)c2cccnc2c1O)c1cccs1 (stereo not drawn),-20%
Cc1ccc(C)c(Cn2c(=O)n(-c3ccc(F)cc3)c(=O)c3sc4ccccc4c32)c1,-20%
C[C@@]12CO[C@@H](Cc3ccccc3)O[C@@H]1CC[C@]1(C)C2CC[C@@H](O)[C@H]1CC(=O)NCc1cc(F)cc(F)c1 (stereo partly drawn),-7%
CC(=O)N1CCC2(CC1)OC(=O)C(C)=C2C(=O)NCc1ccccc1Cl,3%
CCCC(CCC)C(N)=O,?
CCc1ccc(C(=O)c2cn(CC(=O)Nc3ccc4c(c3)OCO4)c3ccc(F)cc3c2=O)cc1,-15%
Cc1ccc(N2C(=O)N[C@@H]3CCN(S(=O)(=O)c4ccc(Cl)cc4)[C@@H]3C2=O)cc1,i
O=C1CCCC2=C1C(c1cccnc1Cl)N=C(Nc1nc3ccccc3o1)N2 (stereo not drawn),-3%
COc1ccc(Br)cc1CNC(=O)CCCn1c(=O)c2cccn2c2ccccc21,-8%
O=C(C1CCCC1)N1CCC(n2cnnc2C2CC2)CC1,-8%
CC(c1ccccc1)n1cc2c(c1-c1ccccc1Br)c(=O)n(C)c(=O)n2C (stereo not drawn),-18%
O=C(NCCc1ccc(F)cc1)C(=O)NCC(c1ccco1)S(=O)(=O)c1ccccc1 (stereo not drawn),-21%
COc1cccc(C(=O)NC(=O)Nc2ccc(-c3cc(C(F)(F)F)nn3-c3ccccc3)cc2)c1,-17%
CC(C)COc1ccc(Nc2ncnc3ccc(Br)cc23)cc1,-14%
Cc1cc(O[C@@H]2O[C@H](COC(=O)CC(=O)O)[C@@H](O)[C@H](O)[C@H]2O)c(C(C)C)cc1O,108%[activator][10 µM]
CCNC(=O)N1CC[C@H]2CC(=O)N(CCc3cccc(OC)c3OC)CC[C@H]2C1,i
COc1ccc(OC)c(CN2CCNc3cc(-c4ccnc(C)c4)ncc3C2)c1,i
Cc1ccnc(NC(=S)N2CCN(c3cccc([N+](=O)[O-])c3)CC2)c1,3%
Cc1ccc(S(=O)(=O)Nc2cnccc2C(=O)Nc2nc(-c3ccncc3)cs2)cc1,i
O=C(CN1C(=O)NC2(CCCCC2)C1=O)Nc1ccc2c(c1)OCCO2,-5%
C/C(=C\C=C\C(C)C1CCC2(C)C3CCC4C(C)(C)C(=O)CCC45CC35CCC12C)C(=O)O (stereo not drawn),13%[10 µM]
COc1ccc(Cl)cc1NC(=O)c1cc(S(=O)(=O)N2CCc3ccccc32)cn1C,-28%
COc1ccc(C)cc1N(C)C(=O)c1c2c(nc3ccccc13)C(=O)N(C1CCCCC1)C2,-9%
CS(=O)(=O)N1C[C@H]2CCN(Cc3ccc[nH]3)C[C@H]21,?
CCOc1ccccc1CNC(=O)Cn1ncn2nc(-c3cccs3)cc2c1=O,-14%
C[C@H](Nc1ncnc2nc[nH]c12)c1cc2ccc(F)cc2nc1-c1ccccn1,19%
CCN(CC)CCCNC(=O)CCC(=O)NNc1nc2ccccc2c2nc(C)nn12,-2%

# Filtered by structure: the compounds so far containing an aryl methoxy group.
smiles,nsP2pro primary
COc1ccc(CNC(=O)CN2C(=O)COc3ccc(S(=O)(=O)N4CCOCC4)cc32)cc1,-17%
COc1ccc(-c2noc(CSc3nnc(-c4ccc(Cl)cc4)n3C)n2)cc1OC,-21%
COc1ccccc1N1CCN(C(=O)CCS(=O)(=O)c2ccc3c(c2)oc(=O)n3C)CC1,-14%
COc1ccc(-c2cc(C(=O)Oc3ccc(C)cc3)c3ccccc3n2)cc1,-11%
COc1ccc(Nc2ccc3c(n2)CN(Cc2ccccc2C)C(=O)CO3)cc1,4.5µM*
COc1ccc(CCNC(=O)c2cccc(Nc3nc4ccccc4nc3-n3nc(C)cc3C)c2)cc1OC,-8%
COc1nc2nc(CCc3ccccc3)n(C)c2cc1-c1ccnn1C,-28%[39.2 µM]
COc1cccc(CC(=O)Nc2nc(-c3ccc4c(c3)CCN4C(=O)c3ccccc3C)c(C)s2)c1,-7%
COc1ccc(C(=O)N(Cc2cc(OC)c(OC)c(OC)c2)CC2CCCO2)cc1 (stereo not drawn),-14%
COc1ccc(C[C@@H]2NC(=O)[C@@H]3C[C@@H](NC(=O)Nc4cccc(SC)c4)CCN3C2=O)cc1,-5%
COc1ccc(Br)cc1CNC(=O)CCCn1c(=O)c2cccn2c2ccccc21,-8%
COc1cccc(C(=O)NC(=O)Nc2ccc(-c3cc(C(F)(F)F)nn3-c3ccccc3)cc2)c1,-17%
CCNC(=O)N1CC[C@H]2CC(=O)N(CCc3cccc(OC)c3OC)CC[C@H]2C1,i
COc1ccc(OC)c(CN2CCNc3cc(-c4ccnc(C)c4)ncc3C2)c1,i
COc1ccc(Cl)cc1NC(=O)c1cc(S(=O)(=O)N2CCc3ccccc32)cn1C,-28%
COc1ccc(C)cc1N(C)C(=O)c1c2c(nc3ccccc13)C(=O)N(C1CCCCC1)C2,-9%

# Some of these compounds in order of length of the SMILES, low to high:
smiles,nsP2pro primary
O=C(CN1C(=O)NC2(CCCCC2)C1=O)Nc1ccc2c(c1)OCCO2,-5%
CCNC(=O)N1CC[C@H]2CC(=O)N(CCc3cccc(OC)c3OC)CC[C@H]2C1,i
Cc1cc(O[C@@H]2O[C@H](COC(=O)CC(=O)O)[C@@H](O)[C@H](O)[C@H]2O)c(C(C)C)cc1O,108%[activator][10 µM]
